# ClpP mod: qHTS Assay for Activators of ClpP | purified B. subtilis ClpP, FRET peptide cleavage, 20 min | AID 651965, 2013 | Potency, µM (highest dose often 57.5 µM), inactives show at the top dose activity change, negative = active | actives 1.9% (n = 340,000) | ATP-dependent Clp protease proteolytic subunit (Bacillus subtilis (strain 168)), P80244; active = well fitted falling curve with a large enough effect; inconclusive = small, poorly fitted or top-dose-only effect; inactive = no such curve, though single readings can be large or run the other way; note: potency is the fitted concentration of half-maximal effect; the source files actives as falling curves though it sought activators and does not explain the sign; nearly all actives have a fitted effect of over 65% in size; many hits overshoot -100%
# Target sequence (P80244 whole entry, looked up): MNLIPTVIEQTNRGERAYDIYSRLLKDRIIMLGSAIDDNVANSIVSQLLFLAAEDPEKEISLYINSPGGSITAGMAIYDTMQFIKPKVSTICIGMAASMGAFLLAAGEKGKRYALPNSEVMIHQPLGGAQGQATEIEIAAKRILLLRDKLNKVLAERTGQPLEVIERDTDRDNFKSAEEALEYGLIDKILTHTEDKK
#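 ClpP 10 microg/mL final, pH 8 Tris/KCl buffer with BSA, glycerol, Tween-20; compound pinned in; FRET-FV substrate; RT 20 min; Ex320/Em430; ΔFRET vs ADEP 5.8 microM, DMSO, no enzyme.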
# gsp agonist: gsp mutant agonism; Potency, µM (doses to about 76.9 µM), inactives show at the highest dose activation (cAMP increase), usual class: activators; actives 0.13% (n = 340,000); gsp mutant cells, cAMP HTRF, 30 min; control for the full effect not named in the record; active = well fitted activation curve with a large enough effect; inconclusive = small, poorly fitted or top-dose-only effect, or another doubt; inactive = no such curve, though single readings can be large or run the other way; cell line not stated here;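 note: phosphodiesterase inhibitor Ro 20-1724 added with compounds to block cAMP breakdown; potency is the fitted concentration of half-maximal effect; nearly all actives have a fitted effect of over 60% in size; about a fifth of the inactives were tested at one dose only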
#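 Cells in DMEM/10% FBS with G418 were pretreated with compounds in DMSO plus […] (300 uM stock) for 30 min at 37C. cAMP was measured by HTRF (cAMP-d2 plus anti-cAMP antibody-K) after 30 min at room temperature.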
# D2 PAM: human D2 receptor positive allosteric modulation. DiscoveRx D2 beta-arrestin cells, luminescence, 90 min; 100% = 57 uM dopamine signal. potentiation, % (test concentration not listed). actives 0.23% (n = 360,000). AID 624464; active = potentiation of 50% or more; inconclusive = 30% to 50%; inactive = 30% or less;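 note: compound concentration not given in the record; tested on top of an EC20 dose of dopamine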
# Target sequence (P14416 whole entry, looked up): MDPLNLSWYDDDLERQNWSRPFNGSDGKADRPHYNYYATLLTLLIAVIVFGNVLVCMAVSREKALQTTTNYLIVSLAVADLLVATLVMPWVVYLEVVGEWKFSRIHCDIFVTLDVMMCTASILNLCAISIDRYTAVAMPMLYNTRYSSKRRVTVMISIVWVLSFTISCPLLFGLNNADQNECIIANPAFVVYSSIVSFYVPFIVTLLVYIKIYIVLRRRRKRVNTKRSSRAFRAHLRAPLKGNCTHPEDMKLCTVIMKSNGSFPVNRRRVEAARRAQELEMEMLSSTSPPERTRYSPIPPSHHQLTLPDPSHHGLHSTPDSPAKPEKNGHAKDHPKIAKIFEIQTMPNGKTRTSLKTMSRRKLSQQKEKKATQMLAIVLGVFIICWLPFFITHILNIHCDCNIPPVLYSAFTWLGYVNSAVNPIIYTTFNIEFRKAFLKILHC
#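 PathHunter D2 cells, attached overnight at 37 deg C, received compound in DMSO plus dopamine at EC20 (50 nM final) for 90 min at 37 deg C. Beta-arrestin recruitment was read as luminescence after 1 h with detection reagent at ambient temperature.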
# Menin MLL FP FL: displaces fluorescein MLL peptide from human menin; Fluorescence polarization, fluorescein-MLL peptide displacement from menin; FP activity change, % at 61.4 µM; 290,000 tested, under 10 active; inconclusive = falling polarisation curve, or a change in total fluorescence; inactive = total fluorescence flat and polarisation flat or rising; no compound was filed as active; the % refers to the polarisation; negative = inhibition;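 note: % of control where 0% means no effect; inhibitors lower the polarisation; unlabelled MLL peptide was the positive control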
# Sfp PPTase inh: Sfp phosphopantetheinyl transferase inhibition. Potency, µM, for the others: max response, negative = inhibition, actives largely listed as inhibitors. Biochemical Sfp PPTase activity, qHTS. actives 3.5% (n = 310,000). Q9F4F7; active = well fitted inhibition curve with a large enough effect; inconclusive = small, poorly fitted or top-dose-only effect, or another doubt; inactive = no such curve, though single readings can be large or run the other way;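 note: the enzyme is Sfp with the accession as filed and its product quenches rhodamine fluorescence; potency is the fitted concentration of half-maximal effect; 0% = enzyme reaction without inhibitor and -100% = no enzyme wells; top concentration of the series not given in the record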
#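 Reaction rates are the 30-min fluorescence difference (ex 525, em 598 nm) in wells containing 15 nM Sfp, 5 uM rhodamine-CoA and 12.5 uM BHQ-2-YbbR at pH 7.6 with 10 mM MgCl2.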
# TRPV1 PAM: human TRPV1 potentiation. AID 540277. Q8NER1. actives 0.02% (n = 320,000). potentiation, % at 8.33 µM. TRPV1-expressing cells, Fluo-8 calcium influx, capsaicin EC20 potentiation; host cell line not named in the record; control for the full effect not named in the record; active means potentiation above 80%; inconclusive means 30% to 80%; inactive means below 30%; note: 0% is about no effect
#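 TRPV1-expressing cells were cultured overnight at 35.5C and loaded with Fluo-8 calcium dye for 40 to 90 min at room temperature. After a 10 s baseline, compound was added and calcium influx was read kinetically for 3 min (ex 480/em 520 nm).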
# gsp antagonist: antagonizes gsp, the McCune-Albright syndrome mutation | AID 624288 | actives 0.4% (n = 340,000) | Potency, µM (top dose mostly 76.9 µM), for inactives: at the top dose activity change, negative = inhibition, hits mostly inhibitors | gsp-mutant cells, cAMP HTRF, 30 min; control for the full effect not named in the record; active = falling curve of any shape with a large fitted effect; inconclusive = falling curve, mostly with a smaller effect; inactive = flat or rising curve; cell line not stated here;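 note: intracellular cAMP measured with PDE inhibitor Ro 20-1724 present during compound exposure; potency is the fitted concentration of half-maximal effect; % is set by controls: 0 for no effect and ±100 for the full control effect; nearly all actives have a fitted effect of over 65% in size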
#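 Cells, 2000/well, grown 16–24 h in DMEM 10% FBS with 0.5 mg/ml G418, then compounds plus […] (300 uM addition stock), 30 min at 37C. cAMP read by HTRF (cAMP-d2 and anti-cAMP antibody-K in lysis buffer) after 30 min RT.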
# * hit, by the source's call; ? = inconclusive; . = not tested or not shown; & = joins results of further samples; [ ] = another dose, or the depositor's remark.
# Values run as follows: Menin MLL FP FL	ClpP mod	TRPV1 PAM	Sfp PPTase inh	D2 PAM	gsp agonist	gsp antagonist
> CCOC(=O)N1CCC(Nc2c(NCCCN(CC)Cc3ccccc3)c(=O)c2=O)CC1
    1.7	-2.1%&-1.1%	1	13%	-16&-1	-29%&0%	10%&5%
> Cc1cnc(C(=O)NC(C)CCc2ccccc2)cn1 (stereo unspecified)
    -4.9	0.6%	-30	16%	-8	-64%[inhibitor]	-21%
> C#CCOCCOCCOCCNc1nc(N2CCN(C(=O)CCCCCCCCCCNC(=O)Cn3cc(C[C@@H](C)O)nn3)CC2)nc(N2CCN(C(=O)CCCCCCCCCCNC(=O)[C@H](CCCN=C(N)N)n3cc(C[C@@H](C)CC)nn3)CC2)n1
    .	0.3%	?	.	-6	.	-2%
> CCOc1ccccc1-n1c(=S)sc2c(=O)n(-c3ccc(F)cc3)c(SCC(=O)O)nc21
    1.2	.	4	14%	0	6%	-7%
> Cc1cc(C)c(C)c(S(=O)(=O)NCc2ccc(C(=O)N3CCCCC3)cc2)c1C
    0.2	1.5%	12	-9%	2	-43%[inhibitor]	-12%
> Cc1cc(C(=O)CSc2nnnn2-c2ccccc2)c(C)n1CC1CCCO1 (stereo unspecified)
    4.0	0.8%	-13	-10%	11	-22%	3%
> Cn1c(=N)n(CC(=O)C(C)(C)C)c2ccccc21
    4.4	-2.8%	11	17%	-33	-26%	8%
> COC(=O)c1cnn(-c2ccc(Cl)cc2)c1/C=N/NC(N)=S
    0.2	-3.3%	-5	-3%	-9	-3%[15.4 µM]	0%
> Cc1cc(OCC(O)CN2CCc3ccccc3C2)cc(C(C)C)c1 (stereo unspecified)
    3.2	2.0%	8	-10%	-38	-34%	-2%
> O=C(Nc1ccc2c(c1)OCCO2)N1CCN(c2ccccc2)CC1
    3.9	1.7%	-21	9%	-9	-1%	2%
> COC(=O)C1=C(NC(=O)c2ccccc2C)CCS1
    -1.6	0.4%	26	-6%	-11	-18%	-23%
> CCc1nc(N2CCN(S(C)(=O)=O)CC2)c2c3c(sc2n1)CCCC3
    -1.1	.	-5	5%	7	0%	?
> CCN(CC(=O)NCc1cccs1)CC(=O)Nc1ccc(C(N)=O)cc1
    .	0.1%	.	.	-3	-5%	2%
> COc1cc(/C=C2\SC(=O)N(c3cccc(Cl)c3)C2=O)cc([N+](=O)[O-])c1O
    1.9	.	-8	-8%	-5	2%[15.4 µM]	?
> NS(=O)(=O)c1ccc2nc(NC(=O)CS(=O)(=O)c3ccccc3)sc2c1
    1.5	-2.2%	-3	14%	-14	-17%	-13%
> CCC(=O)Nc1ccc(C(=O)NNC(=O)c2cccs2)cc1
    -0.9	-1.0%	.	4%	-2	-1%	5%
> CCOC(=O)c1cc(-c2csc(COc3ccccc3)n2)on1
    4.7	1.5%	-2	-8%	-14	16%	-21%
> Cc1cc(C)cc(NC(=O)COC(=O)Cn2cnc3c2c(=O)n(C)c(=O)n3C)c1
    .	0.8%	3	.	-5	?	4%
> COCC(C)n1c(SCC(=O)NCCC2=CCCCC2)nc2ccccc2c1=O (stereo unspecified)
    0.9	0.4%	-16	5%	-5	-11%	-2%
> CN1CCN(CCNC(=O)c2ccc(CS(=O)c3ccc(Br)cc3)o2)CC1 (stereo unspecified)
    .	-0.4%	.	.	-4	-21%	.
> COC(=O)c1ccc(NC(=S)Nc2ccccc2)cc1
    1.4	0.9%	17	3%	-8	-5%	5%
> CCn1c(SCC(=O)N2CCN(C(=O)c3ccco3)CC2)nnc1C(C)C
    1.6	.	-1	14%	2	8%	14%
> CCOc1cc(C(=O)Nc2ccon2)cc(OCC)c1OCC
    -1.0	-0.6%	5	12%	-16	-28%	10%
> O=C(Nc1ccc(F)cc1)C1CCN(C(=O)c2ccc(F)cc2)CC1
    .	-0.5%	-22	.	-3	-18%	21%
> COc1cc(F)c(C2=CC(=O)C[C@H](c3ccc(Cl)cc3)C2)cc1F
    .	-5.1%	-2	.	-11	?	-17%
> ON1C(c2ccccc2C(F)(F)F)N(O)[C@H]2CCCC[C@H]21 (stereo partly specified)
    1.1	-0.7%	-12	-17%	-18	28%	12%
> CCCCC(=O)N/N=C(C)/C=C/c1ccccc1F
    -0.5	0.1%	-14	3%	-36	-8%	-21%
> Cc1ccc(-n2nc3c(=O)n(C(C)C(=O)NC4CC4)nc(C)c3c2C)cc1 (stereo unspecified)
    0.5	-2.5%	5	5%	-8	-45%[inhibitor]	1%
> COc1ccc(NS(=O)(=O)c2ccc(N)cc2)nn1
    1.8	.	-1&3	13%&-14%&9%&11%	.	.	.
> CCC(OC(=O)C(NC(=O)c1ccccc1)c1ccccc1)C(=O)Nc1cc(C)on1 (stereo unspecified)
    3.8	-0.2%	-15	20%	-7	-35%	-15%
> Cc1ccc(NC(=O)C2CCN(S(=O)(=O)c3ccc4c(c3)C(C)(C)C(=O)N4C)CC2)c(C)c1
    -2.5	-0.5%	-1	6%	-3	4%	-11%
> CCC(=O)N(C)CCc1cc2c(c(OC)c1/C=N/NC(=O)c1ccncc1)OCO2
    4.8	0.5%	-10	-21%	-1	3%	-1%
> Cc1ccc(NS(=O)(=O)c2c(C(=O)N3CCOCC3)c(C)n(C)c2C)cc1
    .	-0.2%	0	3%	4	25%	-5%
> O=C(Nc1ccccc1)c1cccc(S(=O)(=O)NCc2ccco2)c1
    -2.0	-3.1%	-10	9%	-9	-59%[inhibitor]	-22%
> COc1ccc(C)cc1Nc1n[n+](-c2ccccc2)c(-c2ccc(OC)c(OC)c2OC)s1
    0.4	-1.2%	-10	-28%	-23	.	-14%
> COC(=O)CCn1nnc(-c2cccs2)n1
    0.5	-0.6%	0	11%	-6	-19%	3%
> CCCCC1(C)NC(=O)N(CC(=O)Nc2ccc(S(=O)(=O)N3CCOCC3)cc2)C1=O (stereo unspecified)
    0.7	0.9%	25	-3%	-18	18%	-4%
> COc1ccc(C2SCC(=O)N2c2c(C)n(C)n(-c3ccccc3)c2=O)cc1 (stereo unspecified)
    0.0	-2.4%	11	7%	-7	0%	3%
> O=C(Nc1cccc2ncccc12)c1ccc([N+](=O)[O-])o1
    1.4	.	8	25%	-1	-1%	-10%
> Nn1c(SCC(=O)N2CCN(S(=O)(=O)c3ccccc3)CC2)nnc1-c1cccs1
    0.3	-11%	21	5%	-14	3%	-13%
> Cn1c(COc2ccccc2Br)nc2ccccc21
    -2.0	0.3%	-12	5%	12	?	-7%
> O=C1C=C(c2ccc(Cl)cc2)OC2(CCCC2)O1
    -1.8	-1.4%	-21	-9%	2	8%	1%
> CN(C)CCCN1C(=O)c2cccc3cccc(c23)C1=O
    -0.3	?	-2	15%	-2	-1%[15.4 µM]	8%
> Cc1coc2c1c(C)cc1oc(=O)c(CC(=O)NCCCCCC(=O)O)c(C)c12
    1.6	.	0	11%	7	12%	-7%
> CCOC(=O)c1cnn(-c2nc(C)cc(C)n2)c1N
    -0.7	-2.0%	10	-5%	-13	0%	5%
> Cc1ccc(N(CC(=O)NCc2cccnc2)S(C)(=O)=O)cc1C
    -0.5	-0.4%	-1	31%[activator]	-41	-4%	8%
> Cc1cccc(NC(=O)c2cc(Cl)nc3ccccc23)n1
    -1.9	.	.	15%	-1	-4%[15.4 µM]	-6%
> O=C1C=C(c2ccccc2)CO1
    .	-2.3%	.	.	-12	5%	7%
> Cc1cccc(C(=O)NNC(=O)CCC(=O)Nc2cccc(Cl)c2C)c1
    2.1	0.0%	?	-1%	-22	-2%	12%
> CCOC(=O)C1(Cc2cccc(Cl)c2)CCCN(C(=O)c2ccc(C)nc2)C1 (stereo unspecified)
    0.0	.	0	10%	-3	-1%[15.4 µM]	2%
> COCc1ccc(CN2CCCC(CO)(Cc3cccc(OC)c3)C2)o1 (stereo unspecified)
    0.9	-4.8%	1	14%	-25	3%	7%
> O=C(c1cnn2c(C(F)F)cc(-c3ccccc3)nc12)N1CCCc2ccccc21
    -1.5	-0.3%	4	2%	-9	-10%	-10%
> CCCC(=O)Nc1ccc(C(=O)NNC(=O)c2ccco2)cc1
    0.4	2.5%	?	7%	-2	22%	8%
> CC1CCCC(NC(=O)C2CCC(CNc3c(N4CCCC4)c(=O)c3=O)CC2)C1C (stereo unspecified)
    11	-0.3%	29	3%	-11	?	1%
> C#CCOCCOCCOCCNc1nc(N2CCN(C(=O)[C@H](CCC(=O)O)n3cc(C(N)[C@H](C)CC)nn3)CC2)nc(N2CCN(C(=O)[C@H](Cc3ccc(O)cc3)n3cc(C(N)[C@H](C)CC)nn3)CC2)n1 (stereo partly specified)
    -3.9	-1.8%	-1	9%	-8	7%	9%
> Clc1ccc(NCn2cncn2)nc1
    0.4	?	?	?	3	-6%	12%
> O=C(O)C(Cc1c[nH]c2ccccc12)NS(=O)(=O)c1ccc(Cl)c(C(F)(F)F)c1 (stereo unspecified)
    0.5	.	25	5%	1	?	6%
> Cc1nn(Cc2cccc(F)c2)c(C)c1NC(=O)c1c(Cl)cnn1C
    4.6	0.7%	6	6%	-18	-40%[inhibitor]	4%
> CCCCN1CNC(=S)N(c2cc(C)ccc2C)C1
    0.3	-0.2%	4	16%	-14	14%	-1%
> CCc1ccccc1Nc1nc(N)nc(COC(=O)c2cccn2C)n1
    1.8	-1.5%	3	8%	-2	?	2%

# Other records:
# Values run as follows: Menin MLL FP FL	ClpP mod	TRPV1 PAM	Sfp PPTase inh	D2 PAM	gsp agonist	gsp antagonist
> COc1cc(/C=C/C(=O)O)cc(S(=O)(=O)Nc2cc(Cl)c(Cl)cc2Cl)c1OC
    -4.1	.	10	13%	1	6%[15.4 µM]	-1%
> CN(Cc1ccccc1)C(=O)COc1ccc2ccccc2c1
    .	-2.4%	.	.	-13	14%	-6%
> CCOC(=O)c1cc(-c2ccc(OC)cc2)n(CCC(=O)NCCN2CCC(C)CC2)c1C
    1.0	-2.5%	-17	0%	-11	-7%	3%
> COc1ccc(C(CNC(=O)COc2ccc(Cl)cc2C)N2CCCCC2)cc1 (stereo unspecified)
    .	0.3%	11	8%	-21	-30%	4%
> COc1cc(CCC(=O)OCC(=O)NCC2CCCCC2)cc(OC)c1OC
    -0.3	22%	-8	3%	-6	7%[15.4 µM]	-7%

# Screening data: PubChem BioAssay, National Center for Advancing Translational Sciences (NCATS)
